Screens from PubChem BioAssay.
LANA-H2B inh – blocks KSHV LANA binding to histone H2A/H2B; inhibition, % (concentration not given with the values); Q9QR71; 320,000 compounds, 0.6% hits; cell-free LANA-H2A/H2B peptide, fluorescence polarization; AID 2629; in the data active means inhibition mostly above about 10%, no sharp cut-off; inactive means mostly below about 6.7%;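 further: stock transfer was 7.5 nL into about 10 µL; 0% = median of vehicle wells and 100% = median of positive control wells; one replicate is shown; the record names a cut of 25% in any replicate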
A1 inh – inhibitors of the anti-apoptotic protein A1, read as caspase activation | MEF A1-2A-BIM cells, Caspase-Glo 3/7 luminescence, 3 h; percent of clofoctol response, vehicle zero | caspase activation, % (test concentration not listed) | 330,000 compounds, 0.066% hits | AID 2462;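 active means over half of replicate activation scores above 10%, or exactly half above 10 with the replicate mean above 10; inconclusive means replicate mean below 10 yet half the replicates above 10; inactive means over half of replicates below 10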;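 further: wells of about 30 µL received 50 nL stock; many hits fall short of the cut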
Vif A3G – inhibitors of Vif binding to APOBEC3G peptide, primary screen, biochemical, TR-FRET, GST-Vif 1-94, biotin-A3G peptide, dose response retest (AID 1117319). TR-FRET GST-Vif / biotin-A3G peptide binding; higher % means a stronger effect; test concentration not given here; strong numbers were not always called active. inhibition, %, or IC50 in µM where a hit was titrated. 260,000 compounds, 0.57% hits;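 active means above the screen mean plus three standard deviations and confirmed in dose response; inconclusive means results disagree or hit not tested in dose response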;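 further: Vif residues 1-94 fused to GST binding biotinylated APOBEC3G peptide 110-148; 0% = full assay without inhibitor and 100% = GST in place of GST-Vif; retest series ran down from 100 µM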
E coli growth – blocks Escherichia coli growth; OD600, 23 h; hits give low values; AID 1053175; 330,000 compounds, 0.21% hits; OD600 absorbance (test concentration not listed);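 active means OD600 absorbance below the run mean of sample wells minus 3.6 SD, in any replicate, cut at about 0.56 in these data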;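 further: stock transfer was 300 nL into about 60 µL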
UCH37 DUB inh – blocks the human deubiquitinase UCH37; AID 588478; purified proteasome/UCH37, Ub-AMC cleavage fluorescence; inhibition, % (test concentration not listed); 330,000 compounds, 0.33% hits;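 active means mean of two replicates above 20%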;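 further: 0% = compound-free wells with enzyme and 100% = wells lacking proteasome; stock transfer was 100 nL into about 20 µL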
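Signal – fluorescence, ex 355 nm, em 460 nm · System – Proteasome-bound UCH37 · Input – 0.15 nM proteasome as dispensed · Timing – 30 min preincubation with enzyme, 25 min cleavage at room temperature · Read-out basis – percent inhibition of cleavage signal versus uninhibited and no-proteasome wells · Medium – Tris-HCl pH 7.4 with ATP-MgCl2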
B2AR ag – human beta-2 adrenergic receptor agonism by FAP; P07550; AID 504454; 340,000 compounds, 0.43% hits; Am2.2-beta2AR cells, FAP receptor internalization, flow cytometry; reference of the scale not given here; response, % (no concentration beside the values);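 active means response above a set limit, near 3 SD of response in nonfluorescent compounds, cut at about 42% in these data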;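 further: stock transfer was 100 nL into about 11 µL; a reference agonist was the positive control; negative values mostly stem from fluorescent compounds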
Target sequence (P07550 whole entry, looked up): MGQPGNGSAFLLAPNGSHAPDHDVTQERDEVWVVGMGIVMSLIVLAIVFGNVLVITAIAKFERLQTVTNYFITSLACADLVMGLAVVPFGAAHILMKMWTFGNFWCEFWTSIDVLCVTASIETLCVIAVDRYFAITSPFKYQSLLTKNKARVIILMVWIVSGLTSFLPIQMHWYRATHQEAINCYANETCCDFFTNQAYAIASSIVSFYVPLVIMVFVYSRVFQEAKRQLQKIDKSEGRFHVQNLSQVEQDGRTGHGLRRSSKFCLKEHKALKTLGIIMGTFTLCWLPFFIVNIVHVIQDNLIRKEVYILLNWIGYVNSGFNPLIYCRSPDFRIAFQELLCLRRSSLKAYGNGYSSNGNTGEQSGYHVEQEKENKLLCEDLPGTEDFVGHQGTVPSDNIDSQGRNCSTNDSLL
HNF4A DNA FP – change in binding of human HNF4 alpha to DNA | HNF4a-FITC DNA binding, fluorescence polarization, 1 h | activity change, % at 10 µM | P41235 | 360,000 compounds, 0.3% hits; in the data active means activity change above about 30%, passing the limit was not always enough;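 further: controls were the assay level and a saturating level of protein; the project sought stronger binding though the title names inhibitors; some compounds called inactive have numbers as strong as hits; positive values seem to mean higher polarization but the record does not say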
Target sequence (P41235 whole entry, looked up): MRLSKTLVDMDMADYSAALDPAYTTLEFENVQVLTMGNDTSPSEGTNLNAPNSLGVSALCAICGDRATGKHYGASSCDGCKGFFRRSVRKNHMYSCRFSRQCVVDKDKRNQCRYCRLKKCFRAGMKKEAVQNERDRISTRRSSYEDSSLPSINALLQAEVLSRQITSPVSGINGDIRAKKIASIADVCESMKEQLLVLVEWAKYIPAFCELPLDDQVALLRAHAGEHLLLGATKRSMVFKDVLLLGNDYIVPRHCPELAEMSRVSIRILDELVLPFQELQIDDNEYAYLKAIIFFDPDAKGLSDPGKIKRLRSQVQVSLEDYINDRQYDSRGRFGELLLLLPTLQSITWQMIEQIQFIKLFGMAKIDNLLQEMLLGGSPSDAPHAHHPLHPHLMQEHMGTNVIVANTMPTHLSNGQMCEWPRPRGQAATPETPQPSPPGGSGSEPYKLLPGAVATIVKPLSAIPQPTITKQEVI
* hit, by the source's call; i = inactive; u = inconclusive; x = not tested or not shown.

SMILES	LANA-H2B inh	A1 inh	Vif A3G	E coli growth	UCH37 DUB inh	B2AR ag	HNF4A DNA FP
COCCOc1cc(N(CC(=O)N(C)C)S(=O)(=O)c2ccccc2)c(Cl)cc1Cl	4.6	0.5	2%	0.7	3.3	0	5.8
O=C(CSc1nnc(SCc2ccccc2)s1)N/N=C/c1c(Cl)cccc1Cl	1.1	-0.8	2%	x	x	3	1.5
CCCOc1ccc(OC(=O)Cc2ccc(OC)c(S(=O)(=O)N3CCOCC3)c2)cc1	0.2	-0.3	4%	0.67	3.2	-7	0.7
COCCNC(=S)N1CCN(c2nc3ccccc3s2)CC1	9.5	-0.7	0%	0.69	1.8	-5	-1.3
CCC(=O)NC(C)c1cc(Cl)c2cccnc2c1O (stereo unspecified)	-1.3	1.1	x	0.69	4.3	-4	7.7
CC(C)[N+](C)(CCOC(=O)C1c2ccccc2Oc2ccccc21)C(C)C	7.0	-0.3	-6%	0.71	3.3	-4	1.7
COC(=O)c1cc(OC)c(OC)cc1NC(=O)Cc1ccccc1[N+](=O)[O-]	-2.6	0.3	2%	0.71	6.3	6	0.3
CC1(C)Cc2ccccc2-c2nc3n(c(=O)c21)CCS3	1.8	-1.6	-7%	0.68	-12	-5	-0.8
COC(=O)C(CCCN1C(=O)c2ccccc2C1=O)(NC(C)=O)c1nn[nH]n1 (stereo unspecified)	19*	-0.5	-14%	0.68	4.1	4	-2.1
COc1ccc(/C=C/C(=O)OCC(=O)c2ccccc2F)cc1	1.3	-7.2	-1%	0.68	-0.5	-6	1.9
CCOC(=O)CNC(=O)CSc1nc(-c2ccccc2)ns1	-1.3	-0.1	2%	0.72	3.4	17	0.6
CN(C)CCCNS(=O)(=O)c1ccc(Oc2ncc(C(F)(F)F)cc2Cl)cc1	1.1	-1.1	-1%	0.69	2.5	-14	-1.3
CCOc1ccccc1N(CC(=O)Nc1ccc(OC)c(OC)c1)S(=O)(=O)c1ccccc1	6.1	0.6	-2%	0.61	4.2	0	0.7
COc1ccc(Cc2cc(-c3ccc(F)cc3)n[nH]c2=O)cc1	-1.2	-0.2	8%	0.58	2.3	-2	-0.4
O=C(CSC(=S)N1CCN(c2ccccc2)CC1)Nc1nc(-c2ccccc2)c(-c2ccccc2)o1	2.7	0.2	u	0.75	2.1	-2	3.1
O=[N+]([O-])c1ccc(-c2cn3ccccc3n2)cc1	1.8	-7.1	x	0.66	0.2	-2	1.9
COC(=O)[C@]1(C)N[C@H](CN(C)S(=O)(=O)c2ccc(OC)cc2)[C@@H]2C(=O)N(C)C(=O)[C@@H]21	i	0.0	-12%	0.72	2.1	3	2.5
O=[N+]([O-])c1ccc(S(=O)(=O)N2CCN(c3ccnc4cc(Cl)ccc34)CC2)cc1	1.3	-0.7	x	0.72	5.9	-2	0.5
O=C(CSCc1ccccc1)N1CCN(c2ccc(F)cc2)CC1	1.3	-0.7	0%	0.69	1.7	-10	4.5
c1ccc(-c2n[nH]nc2-c2ccccc2)cc1	-1.1	-0.5	-1%	0.68	4.1	4	-0.8
Cc1oc(-c2ccccc2F)nc1CN1CCC(C(=O)NC2CCCc3ccccc32)CC1 (stereo unspecified)	-0.1	0.2	-3%	0.71	0.8	1	3.7
CCN(CC)S(=O)(=O)c1ccc(-c2csc(C)n2)s1	9.9	-0.5	5%	0.67	1.0	-1	-0.2
COc1ccc2[nH]c3c(=O)n(Cc4ccc(C(=O)N5CCCCCC5)cc4)c(=S)[nH]c3c2c1	3.3	-5.6	x	0.72	-11	4	-2.1
COc1ccccc1-c1ccc(SCC(=O)NCc2ccc3c(c2)OCO3)nn1	-3.3	-1.0	x	0.71	0.6	-11	3.7
CCOc1ccc(N(CC(=O)NCC2CCCO2)S(=O)(=O)c2ccc(C)cc2)cc1 (stereo unspecified)	-1.0	-0.1	1%	0.65	0.9	-5	1.7
Further results.
SMILES	LANA-H2B inh	A1 inh	Vif A3G	E coli growth	UCH37 DUB inh	B2AR ag	HNF4A DNA FP
Cc1cc2nc(SCCN3CCOCC3)[nH]c2cc1C	0.6	-0.2	-9%	0.7	0.5	3	0.5
COCC(=O)N(Cc1cc2cc(C)ccc2[nH]c1=O)c1cccc(C)c1C	-0.9	-0.7	x	0.68	-5.0	-6	5.0
Cc1cccc(C)c1Nc1nnc(SCC(=O)Nc2cc(S(=O)(=O)N3CCCCC3)ccc2Cl)s1	-2.9	-0.5	x	0.72	1.0	-4	-0.3
O=C(NC12CC3CC(CC(C3)C1)C2)c1ccc(-c2cccc(Cl)c2)o1	3.0	0.7	x	0.72	4.8	2	2.2
O=C(O)C1CCCCC1C(=O)NCc1ccc(F)cc1 (stereo unspecified)	1.9	-0.1	5%	0.69	1.5	5	0.1
COc1ccccc1Nc1nc(N)nc(CCl)n1	1.3	-0.1	-8%	x	x	-2	1.5
N=C1SCC(=O)N1c1ccc(Cl)cc1	-1.8	0.0	x	0.66	1.4	-2	7.7
Cc1nnc(SCC(=O)NC2CCCC2)n1-c1ccccc1	2.2	0.2	x	0.71	3.0	-7	-2.2
C[C@]12c3[nH]c4ccc(Cl)cc4c3CCN1C(=O)[C@@H](CC(=O)NCc1cccc(C(F)(F)F)c1)C[C@@H]2C(=O)N1CCOCC1	x	x	0%	0.72	3.1	4	4.0
COC(CNC(=O)c1ccc(N2CCCC2=O)cc1)OC	5.2	0.3	-5%	0.69	3.6	3	-0.4
CCCCNC(=O)C1(NC(=O)Nc2ccccc2)CCCCC1	1.4	0.2	27%	0.66	3.4	19	-0.6
Cc1cccc(-n2nnc(C(=O)Nc3ccc(F)cc3)c2N)c1	0.2	-6.0	u	0.69	-0.7	-3	2.0
O=C(/C=C/C(=O)N1CCc2ccccc2C1)N1CCc2ccccc2C1	-2.2	0.1	29%	0.65	4.4	-3	-15
CC(=O)NC[C@H]1CN(c2ccc(N3CCOCC3)c(F)c2)C(=O)O1	1.5	0.3	-12%	x	x	x	x
CCc1c(C)nc(SCC(N)=O)c(C#N)c1C	-6.3	0.2	u	0.7	0.5	1	-1.0
Cc1cccc(-n2c(SCC(N)=O)nnc2-c2ccco2)c1	1.1	1.7	x	0.68	2.1	-1	0.5
CCOC(=O)c1nn(-c2cccc(OC)c2)c2nc(CC)c(C#N)c(=O)n12	7.9	-0.3	-8%	0.7	-22	3	1.8
COc1ccccc1CNc1nc(-c2cc(C)n(C)c2C)cs1	x	x	x	0.69	5.4	18	18
CC(Cc1cccnc1)NC(=O)c1cc(COc2ccc(F)cc2Cl)on1 (stereo unspecified)	-8.3	0.0	5%	0.71	4.3	2	-55
CCOc1ccc(N(C)S(=O)(=O)c2ccc(C)c(C(=O)NCc3ccccc3OC)c2)cc1	x	x	x	0.65	2.2	12	-0.8
CCn1c(SCC(=O)c2cc(OC)ccc2OC)nnc1C(C)C	-5.4	0.7	u	0.73	6.6	38	-4.1
O=C(NCc1ccccn1)c1ccc(Cl)c(NC2=NC3CS(=O)(=O)CC3S2)c1 (stereo unspecified)	4.4	1.0	x	0.71	-1.2	-2	1.6
O=C(Nc1nc2ccccc2c(=O)s1)c1ccco1	1.4	-0.3	x	0.66	2.4	1	-5.0
CN1C(=O)Cc2cc(S(=O)(=O)Nc3ccc(Cl)cc3)ccc21	0.6	0.4	-6%	0.67	0.9	-10	0.1
CN(C)C(=O)CSc1nnc(CCNC(=O)OC(C)(C)C)o1	3.1	-0.3	-1%	0.68	1.9	-1	3.6
Remaining list, next part.
SMILES	LANA-H2B inh	A1 inh	Vif A3G	E coli growth	UCH37 DUB inh	B2AR ag	HNF4A DNA FP
N#CCSc1nc2sccc2c(=O)n1-c1ccccc1	-4.0	0.2	3%	0.7	4.6	4	4.7
C/C(=N/NS(=O)(=O)c1cc(C)ccc1C)c1ccc2c(c1)OCO2	-2.1	-0.1	x	x	x	-1	0.8
CCCCCCSc1ccc([C@@H]2[C@H]3C(=O)N(CC)C(=O)[C@H]3[C@]3(C(=O)OC)CCCN23)cc1	-6.6	-0.5	x	x	-0.8	-6	6.2
O=C(c1[nH]ncc1-c1cccc(Br)c1)C1CO1 (stereo unspecified)	-2.7	-0.9	-20%	0.61	4.1	4	2.5
CC(C)(C)n1nnnc1C(c1cccnc1)N(Cc1ccccc1)Cc1cccs1 (stereo unspecified)	3.1	0.3	2%	0.73	-0.7	7	-4.4
Cc1cccc2sc(NNC(=O)C3=COCCO3)nc12	4.4	-0.2	19%	0.7	2.2	0	1.1
O=C(O)C1(S(=O)(=O)c2ccc(Cl)cc2)CCC1	-1.5	-0.9	-5%	0.65	-0.6	2	4.2
Cc1ccc(-c2nnc(N(C)C(=O)C3CCCO3)s2)cn1 (stereo unspecified)	3.2	-0.2	2%	0.69	-0.5	-5	-0.9
O=C1CCC(=O)N1CCSC(=S)N1CCSCC1	1.0	0.0	10%	0.7	4.0	-3	-2.0
O=C(Cc1ccc(Cl)cc1)Nc1ccccc1Sc1ccccc1	1.8	0.2	-3%	0.68	-19	-8	-0.6
CN(CC(=O)Nc1c(Cl)cccc1Cl)C(=O)CCCN1C(=O)c2ccccc2C1=O	-0.2	0.3	2%	0.7	5.3	-7	-1.1
O=C(N/C(=C/c1cn(-c2ccccc2)nc1-c1ccccc1)C(=O)N1CCOCC1)c1ccc(Cl)cc1Cl	1.8	0.1	-2%	0.74	1.8	34	-4.5
c1ccc2c(c1)CCNC2c1ccncc1 (stereo unspecified)	-1.5	-0.4	3%	0.68	4.2	-4	1.3
O=C(O)c1ccc(CN2C(=O)c3ccccc3S2(=O)=O)cc1	-6.6	0.8	1%	0.79	0.5	8	-1.3
O=C(O)c1cc2ccccc2c(N=Nc2cccnc2)c1O	-4.9	0.3	x	0.68	14	1	4.5
O=S1(=O)CCOC[C@H](Cc2ccccc2)N1Cc1ccccc1F	2.5	-0.1	x	x	5.0	-2	3.0
Cc1ccc(C(=O)N2CCN(Cc3ccc4c(c3)OCO4)CC2)cc1C	5.3	0.5	-1%	0.66	4.8	1	-0.3
Cc1ccc(C)c(S(=O)(=O)N2CCN(C(=O)c3cncc(Br)c3)CC2)c1	-0.6	0.3	x	0.7	2.0	-1	0.6
CCN(CC(=O)Nc1cc(Cl)ccc1C)C(=O)c1cc([N+](=O)[O-])ccc1N1CCOCC1	-2.3	-0.1	x	0.68	8.6	3	-2.2
COc1ccc(C2CCCN2C(=S)Nc2ccc(C)cc2Cl)cc1OC (stereo unspecified)	1.3	0.6	-10%	0.68	4.6	4	-1.0
S=C(NCCCN1CCOCC1)N1CCOCC1	0.8	0.4	0%	0.7	2.7	-1	-1.6
O=[N+]([O-])c1ccc(Oc2ccc(C(F)(F)F)cn2)cc1	-8.5	0.4	x	0.68	5.5	-10	0.5
Cc1csc(N2CCN(c3cc4c(cc3Cl)nc(-c3ccncc3)n4CCCN3CCCC3)CC2)n1	2.1	-0.6	x	0.8	4.1	8	10
O=[N+]([O-])c1ccc(N2CCCC2)cc1NC1CC1	-2.7	0.0	x	0.64	5.3	-7	1.2
O=C1c2ccccc2C(=O)N1Nc1ccc([N+](=O)[O-])cc1[N+](=O)[O-]	0.5	0.7	x	0.68	6.1	3	-2.1
c1ccc(-c2cn3nc(-c4ccccc4)sc3n2)cc1	-0.5	-7.4	x	0.69	-0.8	7	2.1

Structural class: the entries above with a furan ring, fused or not.
SMILES	LANA-H2B inh	A1 inh	Vif A3G	E coli growth	UCH37 DUB inh	B2AR ag	HNF4A DNA FP
O=C(NC12CC3CC(CC(C3)C1)C2)c1ccc(-c2cccc(Cl)c2)o1	3.0	0.7	x	0.72	4.8	2	2.2
Cc1cccc(-n2c(SCC(N)=O)nnc2-c2ccco2)c1	1.1	1.7	x	0.68	2.1	-1	0.5
O=C(Nc1nc2ccccc2c(=O)s1)c1ccco1	1.4	-0.3	x	0.66	2.4	1	-5.0
